# Screening data from PubChem BioAssay.
# LASV entry inh – blocks Lassa virus binding to or entry into cells; Lassa virus pseudotype entry inhibition, cell reporter; control for the full effect not named in the record; Potency, µM (highest dose often 37.9 µM), inactives show top-dose activity change, negative = inhibition, hits mostly inhibitors; 1.2% of 300,000 active; AID 540256; active means well fitted inhibition curve with a large enough effect; inconclusive means small, poorly fitted or top-dose-only effect, or effect the other way; inactive means flat fitted curve, though single readings scatter; tested in HEK293 cells; further: on the % scale 0 is the no-effect control and ±100 the full control effect; nearly all actives have a fitted effect of over 50% in size; luciferase read-out
# Marburg entry inh – blocks Marburg virus binding to or entry into cells | 1.8% of 300,000 active | Potency, µM (doses to about 37.8 µM), inactives show top-dose activity change, negative = inhibition, most hits filed as inhibitors | Marburg virus pseudotyped entry inhibition, cell reporter; control for the full effect not named in the record; about a third of the inactives were read at about 46 µM; active = well fitted inhibition curve with a large enough effect; inconclusive = small, poorly fitted or top-dose-only effect, or effect the other way; inactive = flat fitted curve, though single readings scatter; tested in HEK293 cells; about a fifth of its hits are not listed in these tables; further: on the % scale 0 is the no-effect control and ±100 the full control effect; luciferase read-out
# RE007 growth inh – less growth of the S. pombe RE007 Vpr strain. S. pombe RE007 Vpr strain, BacTiter-Glo ATP luminescence, 24 h; control for the full effect not named in the record. Potency, µM (titrated, usually from 92.2 µM), for the others: at the highest dose activity change, negative = less growth. 0.21% of 360,000 active. AID 651644; active = well fitted falling curve with a large enough effect; inconclusive = small, poorly fitted or top-dose-only effect; inactive = no such curve, though single readings can be large or run the other way;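 further: on the % scale 0 is the no-effect control and ±100 the full control effect; nearly all actives have a fitted effect of over 50% in size; the assay follows cell death caused by Vpr and the record does not say whether a fall means rescue or toxicity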
#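 Fission yeast strain RE007, carrying one chromosomally integrated HIV-1 vpr copy, was seeded at OD 0.01 in PMG+AL medium with 23 nL pinned compound. After 24 h at 30 °C and 99% humidity, viability was read by BacTiter-Glo luminescence.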
# StopGo reporter – lowers the luciferase signal of an FMDV 2A StopGo reporter | Potency, µM (series often up to 57.9 µM), for inactives: at the highest dose signal change, negative = less light | 1.2% of 410,000 active | AID 1159524 | human cells with a luciferase reporter of 2A StopGo recoding; control for the full effect not named in the record; active = well fitted falling curve with a large enough effect; inconclusive = small, poorly fitted or top-dose-only effect; inactive = no such curve, though single readings can be large or run the other way; tested in HEK293T cells; further: on the % scale 0 is the no-effect control and ±100 the full control effect; nearly all actives have a fitted effect of over 45% in size; luciferase light after 4 h
# Cruzain inh noDet – cruzain (T. cruzi) inhibition without detergent | purified cruzain, Z-FR-AMC fluorescence, no detergent | 2.3% of 200,000 active | Potency, µM, for the others: max response, negative = inhibition, actives largely listed as inhibitors | P25779;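 further: plate controls were enzyme without inhibitor for no effect and buffer without enzyme for full effect; nearly all actives have a fitted effect of over 40% in size; top concentration of the series not given in the record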
# Target sequence (P25779 123-467 limits assumed): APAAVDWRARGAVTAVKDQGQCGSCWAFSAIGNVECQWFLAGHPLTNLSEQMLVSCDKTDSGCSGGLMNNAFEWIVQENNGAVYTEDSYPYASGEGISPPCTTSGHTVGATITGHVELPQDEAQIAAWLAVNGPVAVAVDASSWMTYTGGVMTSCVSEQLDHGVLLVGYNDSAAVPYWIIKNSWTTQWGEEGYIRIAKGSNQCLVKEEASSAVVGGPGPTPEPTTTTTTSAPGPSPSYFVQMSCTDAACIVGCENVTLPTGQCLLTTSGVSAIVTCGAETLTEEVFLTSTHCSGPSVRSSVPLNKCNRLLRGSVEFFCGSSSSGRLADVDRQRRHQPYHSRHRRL
#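 Detergent-free condition (0.00005% Triton X-100) in acetate buffer pH 5.5 with DTT. 1.5 nM enzyme and compound were pre-mixed 15 min, then 2 uM Z-FR-AMC substrate added; reaction progress from fluorescence change between first and third reads (60 s).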
# SARS PLpro yeast – SARS-CoV PLP inhibition in yeast. S. cerevisiae expressing SARS-CoV PLpro, growth rescue; control for the full effect not named in the record. Potency, µM (top dose mostly 32.9 µM), for the others: at the highest dose activity, positive = growth rescue. 0.19% of 330,000 active. AID 485353; active means well fitted rising curve with a large enough effect; inconclusive means small, poorly fitted or top-dose-only effect; inactive means no such curve, though single readings can be large or run the other way; further: 0% is about no effect; nearly all actives have a fitted effect of over 55% in size; growth read by luminescence after 48 h
# Cruzain Triton – cruzain (T. cruzi) inhibition with detergent; P25779; Potency, µM, without a hit: max response, negative = inhibition, usual class: inhibitors; AID 1478; purified cruzain, Z-FR-AMC fluorescence, 0.01% Triton; 0.43% of 200,000 active;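 further: plate controls were neutral wells for no effect and buffer without enzyme for full effect; nearly all actives have a fitted effect of over 40% in size; top concentration of the series not given in the record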
#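 In this qHTS format, compounds are incubated with 1.5 nM cruzain for 15 min at room temperature before 2 uM Z-FR-AMC is added. Release of AMC is followed at 360/450 nm, and progress is taken as the 60 s fluorescence difference.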
# NS1 function inh – blocks influenza NS1 protein function; S. cerevisiae slowed by influenza A NS1, growth recovery by OD600; Potency, µM (series often up to 46.1 µM), for inactives: at the highest dose activity, positive = more growth; 0.4% of 270,000 active; active means well fitted rising curve with a large enough effect; inconclusive means small, poorly fitted or top-dose-only effect; inactive means no such curve, though single readings can be large or run the other way; further: nearly all actives have a fitted effect of over 50% in size
#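 Compounds were scored for reversing the slow growth caused by influenza A NS1 in S. cerevisiae, measured by optical density at 600 nm. Assay medium contained 2% galactose at pH 6.0; NS1-free yeast of the same strain were the positive control.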
# An asterisk follows results filed as active; ? = inconclusive; · = no result given; & = joins results of further samples; [ ] = another dose, or the depositor's remark. Unless noted, the call rests on the fitted dose curve; in most records, active means well fitted curve in the direction sought with a large enough effect; inconclusive means small, poorly fitted or top-dose-only effect, or another doubt; inactive means no such curve, though single readings can be large; an effect the other way counts as inactive or inconclusive. Potency means the concentration at half of the fitted maximal effect. Compounds as they come; overall some 4.7% were active at least once.
SMILES,LASV entry inh,Marburg entry inh,RE007 growth inh,StopGo reporter,Cruzain inh noDet,SARS PLpro yeast,Cruzain Triton,NS1 function inh
CC(=O)Oc1ccc(NC(=O)CCC2CCCCC2)c(C(=O)O)c1,-2%,30%[46.1 µM],17%,-3%,-10%,1%,-4.5%,2%
COc1ccc(NC(=O)CN(C)S(=O)(=O)c2ccc3[nH]c4c(c3c2)CCCC4)cc1OC,-19%[46.1 µM],·,·,?,2%,·,-6.7%,·
O=C(c1cn(-c2ccccc2)nc1-c1ccc(Cl)cc1)N1CCOCC1,-9%,6%,-3%,-8%,21%,10%,-5.0%,-7%
CC(C)Oc1cccc(-c2cc(C(=O)NN3CCOCC3)c3ccccc3n2)c1,-12%,-2%,10%,-10%,·,1%,·,-1%
COc1ccccc1CC(NC(C)=O)C(=O)N1CCN(C(=O)Nc2ccccc2Cl)CC1 (centres undefined),-2%,1%,7%,10%,26%,4%,6.4%,-3%
COC(=O)C1(C(=O)OC)NOC2C(=O)N(c3ccccc3)C(=O)C21 (centres undefined),-2%,4%,1%,1%,-2%,-1%,0.3%,1%
Cc1ccc(Nc2nc(N)nc(CSC(=S)N3CCOCC3)n2)cc1,?,15%,-4%,41%[activator],5%,5%,-3.9%,-87%
Cc1ccccc1OCC(=O)OCc1cc(=O)n2nc(-c3cccs3)sc2n1,0%[46.1 µM],·,·,3%,-19%,·,-2.1%,·
CC#CCCCC(=O)Nc1cccc(C(=O)O)c1,20%,4%,-6%,9%,18%,2%,6.6%,17%
CN(C)c1ccc(/C=C(\C#N)c2ccccc2)cc1,·,·,-17%,7%,·,-2%,·,-10%
Cc1nc2cc(C(=O)OCC(=O)NC(C)C(C)C)ccc2n1-c1ccccc1 (centres undefined),8.2µM*,?,-13%,7%,-3%,-11%,3.2%,-22%
O=C(COC(=O)c1ccc(Cl)c(Cl)c1)Nc1cccnc1Cl,13%,?,-15%,-17%,-14%,1%,-9.3%,-4%
Cc1oc2ccc(OCc3ccc(Cl)cc3)cc2c1C(=O)O,25%[46.1 µM],5%[46.1 µM],15%,3%,·,-2%,·,-34%
O=C(NCc1ccccc1Cl)c1cc2c(s1)-c1ccc(Cl)cc1SC2,-3%[46.1 µM],1%[46.1 µM],·,39%[activator],10µM*,·,-6.5%,·
O=C(N/C(=C\c1ccc(O)cc1)C(=O)N1CCCCC1)c1ccccc1,·,·,0%,-21%,·,5%,·,-16%
COc1ccc(Oc2ncnc3sccc23)cc1,·,-6%[46.1 µM],17%,36%[activator],·,-2%,·,·
O=C(c1ccco1)N1CCN(C(=O)C2CCCc3c2[nH]c2ccc(Cl)cc32)CC1 (centres undefined),4.5µM*,2.8µM*,0%,-13%,?,-3%,-6.6%,-44%
CCC(Oc1ccccc1)C(=O)Nc1ccsc1C(=O)OC (centres undefined),-19%,4%,5%,?,-5%,-35%,-4.5%,-30%
COc1ccc(CCNC(=S)NCc2ccc(Cl)c(Cl)c2)cc1OC,19%,18%[46.1 µM],19%,-8%,·,0%,·,0%
COc1ccc(Cn2cnc3c(NS(C)(=O)=O)c(C)c(C)cc32)cc1,-19%,-22%,-19%,?,2%,-1%,4.6%,-12%
CCC1Oc2nc(SC)nnc2-c2ccccc2N1C(=O)c1ccccc1 (centres undefined),-15%,-25%,-12%,-15%,0%,-8%,-4.2%,0%
CC(C)(C=O)C1=CC(=O)c2ccccc2C1=O,?,?,8.9µM*,35µM*,-9%,-114%,-3.3%,1%
Cc1c(C)c2ccc(OCC(=O)N3C[C@H]4C[C@@H](C3)c3cccc(=O)n3C4)cc2oc1=O,·,·,-14%,-2%,·,4%,·,13%
OC(COCc1cccs1)CN1CCN(c2ccccc2Cl)CC1 (centres undefined),-21%,?,22%,-9%,-2%,14%,1.6%,-3%
CCC1CCC2(CC1)NC(=O)N(CC(=O)NCc1ccccc1Cl)C2=O (centres undefined),-13%,-14%,-6%,-27%,·,-2%,·,·

# (next part)
SMILES,LASV entry inh,Marburg entry inh,RE007 growth inh,StopGo reporter,Cruzain inh noDet,SARS PLpro yeast,Cruzain Triton,NS1 function inh
COc1ccccc1C(=O)n1nc(-c2ccccc2)nc1N,20%,17%,-20%,-13%,8%,6%,0.7%,5%
COc1ccc(NC(=O)c2ccc(-n3nc(C)c[n+]3[O-])cc2)cc1,16%,?,-1%,11%,-4%,-5%,1.7%,-5%
CCc1nnc(NC(=O)CCN2C(=O)C3CCCCC3C2=O)s1 (centres undefined),·,·,-2%,7%,·,4%,·,18%
CC(=O)Nc1cccc(/C(C)=N\NC(=O)c2ccc(Cn3nc([N+](=O)[O-])c(Cl)c3C)o2)c1,-2%,-42%,2%,-27%,18%,-11%,6.4%,3%
C=CC[C@H]1CC(Cc2ccccc2)=C[C@H](CC=C)N1,-11%,?,-4%,5%,-10%,-9%,0.4%,-9%
O=C(C1CN(S(=O)(=O)c2ccccc2)CCN1S(=O)(=O)c1ccccc1)N1CCCCCC1 (centres undefined),-2%,-2%&-2%,-13%,1%,14%,·,3.3%,-25%
O=S(=O)(c1ccccc1)N1CCN(C(=S)NCc2ccccc2)CC1,10%,-1%[46.1 µM],0%,34%[activator],·,-1%,·,·
Cc1cc(C)c2nc(Nc3nc(-c4ccccc4)cc(=O)[nH]3)nc(C)c2c1,·,·,-11%,-20%,·,1%,·,1%
CCOc1cc(S(=O)(=O)N2CCCC2)c(C)cc1C,3%,?,1%,-15%,·,0%,·,-4%
Cc1nc(N)sc1-c1csc(Nc2ccccn2)n1,?,?,-11%,-25%,13µM*,3%,?,-2%
Cc1cc(C)n(-c2nc(SCC(=O)Nc3nccs3)c3c4c(sc3n2)COC(C)(C)C4)n1,7%,-21%&-21%,-13%,-15%,5%,0%,-0.9%,-33%
Cc1ccccc1CNC(=O)C(=O)NCC(c1ccco1)S(=O)(=O)c1cccs1 (centres undefined),1%[46.1 µM],·,·,15%,8%,·,-2.7%,·
COc1ccc(CNC(=O)CCS(=O)(=O)c2ccc3c(c2)oc(=O)n3C)cc1,-14%&-7%[46.1 µM],9%&9%[46.1 µM],0%,-10%&-18%,-4%,-3%,-0.6%,-8%
Cc1c(OC(=O)N(C)C)ccc2c1O/C(=C\c1ccco1)C2=O,15%[46.1 µM],?,6%,-13%,·,-4%,·,-7%
Cc1ccc(-n2c(C)cc(C(=O)CSc3nncs3)c2C)cc1,?,?,-22%,·,-2%,-13%,-3.9%,-143%
COc1ccc(C)cc1NC(=O)C(=O)N/N=C(\C)CC(=O)Nc1cccnc1,?,9%,7%,-9%,2%,-7%,-1.4%,8%
Cc1cc(Nc2ccc(Br)cc2F)n2nc(C)nc2n1,·,·,2%,-28%,11%,3%,-1.3%,-17%
CCOC(=O)c1cc2ccc(OC(=O)c3ccco3)cc2oc1=O,6%,-2%,-23%,33%[activator],?,-8%,28%,-57%
Cc1cccc(NC(=O)Cn2c(=O)oc3ccccc32)c1C,16%,0%[46.1 µM],0%,-1%,·,-1%,·,0%
CN(C)CCNc1ccc(CO)c2sc3ccc(O)cc3c(=O)c12,1µM*,0.89µM*,0%,-16%,·,·,·,·
COc1cccc(CNC(=O)CCNS(=O)(=O)c2ccc3c(c2)CC(C)N3C(C)=O)c1 (centres undefined),·,·,14%,-12%,·,-5%,·,3%
Cc1ccc(C2=CCNCC2)cc1,-1%,0%[46.1 µM],-3%,-8%,·,17%,·,·
COc1ccc(S(=O)(=O)N2CCCCCC2)cc1C(=O)N(C)CC(=O)Nc1cc(C)ccc1C,1%[46.1 µM],?,-1%,-12%,·,·,·,13%
CC(C)=C1C2CCC1C1C(=O)N(NC(=O)c3ccco3)C(=O)C21 (centres undefined),-4%,-1%,3%,-4%,5%,2.8µM*,-1.3%,-8%
CCOc1ccc(/C=C/C(=O)N(CC)CC(=O)NCc2cccs2)cc1OC,-2%,?,-5%,4%,·,-10%,·,·

# Next part.
SMILES,LASV entry inh,Marburg entry inh,RE007 growth inh,StopGo reporter,Cruzain inh noDet,SARS PLpro yeast,Cruzain Triton,NS1 function inh
CCn1c(CSc2nc(C)cc(C)n2)nnc1SCC(=O)Nc1ccccc1,-5%,0%,7%,21%,-2%,7%,8.1%,-4%
COc1ccccc1NC(=O)C1=C(C)Nc2ncnn2C1c1sccc1C (centres undefined),?,·,·,?,6%,·,-1.6%,·
Cc1ccc(NC(=O)NCCCc2ccccc2)cc1,0%,30%,-9%,0%,-3%,-15%,-3.2%,-71%
COC(=O)c1cc(C#N)c(N(C)Cc2ccccc2)nc1C,4%,7%,24%,30%[activator],4%,-25%,-6.9%,-1%
O=C(OCc1cc(=O)n2c(n1)sc1ccccc12)c1ccc(O)cc1,11%,?,11%,25%,?,-6%,-0.9%,0%
COc1ccc(C(=O)NC2CC2)cc1OC1CCN(Cc2ccccc2F)CC1,10%,-3%,-3%,-3%,·,23%,·,-2%
Cc1ccc(NC(=S)N(Cc2ccco2)C(C)c2cccs2)cc1 (centres undefined),-17%[46.1 µM],7%[46.1 µM],1%,25%,·,-5%,·,·
CC(C)(C)NC(=O)CN(c1cccc([N+](=O)[O-])c1)S(=O)(=O)c1ccccc1,-30%[46.1 µM],2%[46.1 µM],-9%,2%,·,-1%,·,-4%
O=S(=O)(NCC(c1cccnc1)N1CCN(c2ccc(F)cc2)CC1)c1cccs1 (centres undefined),·,·,-6%,-13%,4%,3%,-1.5%,-30%
Cc1ccc2c(CC(=O)Nc3ccc(S(=O)(=O)N4CCC(C)CC4)cc3)coc2c1,-13%[46.1 µM],-23%[46.1 µM],·,-5%,?,·,-7.5%,·
CC(C)c1nc(SCC(=O)NCC2CCCO2)c2c(=O)n(C)c(=O)n(C)c2n1 (centres undefined),·,·,-14%,-3%,·,?,·,3%
CCc1cc2c(cc3c(=O)n(CC(=O)N4CCCCC4)nc(CC)n32)s1,·,-29%[46.1 µM],·,17%,-7%,·,-2.2%,·
COc1ccc(N2CCN(S(=O)(=O)c3cn(C)cn3)CC2)cc1,22%[46.1 µM],1%[46.1 µM],2%,-9%,·,6%,·,0%
